# HPGD block: HPGD (human) dehydrogenase inhibition. P15428. purified HPGD, NADH fluorescence kinetic, PGE2 substrate. Potency, µM, for the others: top-dose activity change, negative = inhibition, usual class: inhibitors. 150,000 compounds, 4.3% hits; active = well fitted inhibition curve with a large enough effect (not every such curve was filed as active); inconclusive = small, poorly fitted or top-dose-only effect, or another doubt; inactive = no such curve, though single readings can be large or run the other way;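 also: top concentration of the series not given in the record; plate controls included wells without enzyme; inactives centre near -10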
# Target sequence (P15428 whole entry, looked up): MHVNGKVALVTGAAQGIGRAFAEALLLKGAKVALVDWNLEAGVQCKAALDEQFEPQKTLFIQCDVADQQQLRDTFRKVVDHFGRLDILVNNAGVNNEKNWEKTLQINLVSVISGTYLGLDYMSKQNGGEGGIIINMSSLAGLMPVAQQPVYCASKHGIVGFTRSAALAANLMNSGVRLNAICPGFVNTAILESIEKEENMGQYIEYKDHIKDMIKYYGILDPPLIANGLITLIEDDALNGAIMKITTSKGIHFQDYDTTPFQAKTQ
#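 NADH formation kinetics: reaction with 30 uM PGE2 and 1 mM NAD+ (final), 20 nM enzyme, Tris-HCl pH 8 with Tween 20, after 15 min compound preincubation at room temperature. Fluorescence change, last versus first of five reads.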
# Numbers without * were called inactive; u = inconclusive; & = joins results of further samples. % is scaled to controls: 0 for no effect and ±100 for the full control effect; potency is read from the fitted curve at half-maximal effect.
item	SMILES	HPGD block
1	CCCCCC1CC1C(=O)N/N=C/c1ccc(N(C)C)cc1 (configuration not stated)	u
2	Cn1c(Cc2c[nH]c3ccccc23)n[nH]c1=S	-26%
3	COc1ccc(C(C)(C)C)cc1NC(=O)COC(=O)c1cc(SC)ccc1Cl	-15%
4	CCC(C)NC(=O)COC(=O)c1oc2ccccc2c1CSc1ccc(Cl)cc1 (configuration not stated)	-7%
5	O=[N+]([O-])c1cccc(/C=C/c2nc(C=Nc3ccc4ccccc4c3)c(O)o2)c1	-11%
6	O=C(CN(Cc1ccccc1)C1=NCCS1)c1ccccc1	2%
7	CCOC(=O)C1=C(C)NC(=O)C1CC(=O)Nc1ccccc1 (configuration not stated)	35µM*
8	O=C(CSc1nc(-c2ccco2)cc(C(F)(F)F)n1)N1CCc2ccccc2C1	2.2µM*
9	O=C(COC(=O)CNS(=O)(=O)/C=C/c1ccccc1)NC1CCS(=O)(=O)C1 (configuration not stated)	-11%
10	COc1ccc(-c2cc(=O)c3c(O)cc(O[C@@H]4OC(COC5OC(C)C(O)C(O)[C@@H]5O)C(O)C(O)C4O)cc3o2)cc1 (some centres not stated)	22µM*
11	CCOC(=O)c1c(-c2ccc(C)cc2)csc1NC(=O)CCN1CCOCC1	1%
12	O=C(CN1C(=O)NC2(CCc3ccccc32)C1=O)Nc1ccc(N2CCOCC2)cc1 (configuration not stated)	-10%

# Reprinted from the part before: two compounds, then new ones.
item	SMILES	HPGD block
11	CCOC(=O)c1c(-c2ccc(C)cc2)csc1NC(=O)CCN1CCOCC1	1%
12	O=C(CN1C(=O)NC2(CCc3ccccc32)C1=O)Nc1ccc(N2CCOCC2)cc1 (configuration not stated)	-10%
13	Cc1ccccc1-c1cc(C(=O)Nc2sc(C(=O)OC(C)C)c(C)c2C#N)c2ccccc2n1	16µM*
14	CCOc1ccc(-c2[nH]nc3c2C(c2ccc4c(c2)OCO4)C(C#N)=C(N)O3)cc1OC (configuration not stated)	-17%
15	Cc1cc(C)nc(NC(=O)CSc2nc3cc(Cl)ccc3s2)n1	-9%
16	COc1cc(C(=O)Nc2ccc(S(=O)(=O)Nc3onc(C)c3C)cc2)cc(OC)c1OC	u
17	O=C(CSc1nnc(-c2c[nH]c3ccccc23)o1)N1c2ccccc2CCc2ccccc21	-21%
18	CCCSc1nc(N2CCCC2)c2c(c1C#N)CC(C)(C)OC2	-18%
19	C/C(=N\Nc1ccccn1)c1ccc(S(=O)(=O)NCc2ccco2)cc1	-13%
20	Cc1cc(NC(=O)CSc2nnnn2Cc2ccccc2)no1	2%
21	Fc1ccc(OCc2nc(-c3ccc(Br)o3)no2)c(F)c1	-21%
22	Cc1ccccc1N(C(=O)Cc1ccsc1)C(C(=O)NC1CCCCC1)c1ccc(F)cc1 (configuration not stated)	-7%
23	Cc1cccc(NC(=O)c2snc3c(=O)[nH]cnc23)c1	-6%
24	CN(C)c1ccc(NC(=O)Cn2cc3c(n2)CCCC3)cc1	-13%

# Random excerpt: 5 entries already listed
item	SMILES	HPGD block
14	CCOc1ccc(-c2[nH]nc3c2C(c2ccc4c(c2)OCO4)C(C#N)=C(N)O3)cc1OC (configuration not stated)	-17%
13	Cc1ccccc1-c1cc(C(=O)Nc2sc(C(=O)OC(C)C)c(C)c2C#N)c2ccccc2n1	16µM*
18	CCCSc1nc(N2CCCC2)c2c(c1C#N)CC(C)(C)OC2	-18%
17	O=C(CSc1nnc(-c2c[nH]c3ccccc23)o1)N1c2ccccc2CCc2ccccc21	-21%
24	CN(C)c1ccc(NC(=O)Cn2cc3c(n2)CCCC3)cc1	-13%

# (next part)
item	SMILES	HPGD block
25	COc1cccc(-n2c(SCC(=O)N3CCOCC3)nnc2-c2c[nH]c3ccccc23)c1	-3%
26	O=CNNC(=O)c1cccc([N+](=O)[O-])c1	-5%
27	CC(=O)Nc1ccc(-c2nnn(CC(=O)c3ccccc3)n2)cc1Cl	-11%
28	N#Cc1nc(COc2ccccc2)oc1N1CCOCC1	-2%
29	CCCn1c(C)nc2c(NCCN3CCCCC3)nc(C)nc21	-5%
30	CCC(=O)N1CCc2cc(S(=O)(=O)NC(C(=O)NCc3ccc(F)cc3)C(C)C)ccc21 (configuration not stated)	-8%
31	COc1ccccc1N1CCN(C2CCN(C(=O)c3cc(OC)c(OC)c(OC)c3)CC2)CC1	-15%
32	COc1ccc(S(=O)(=O)NNC(=O)c2cc3cc4ccccc4nc3s2)cc1	-25%
33	O=C(c1ccncc1)c1ccc(NS(=O)(=O)c2ccc(Br)s2)cc1	28µM*
34	Cc1cc(=O)[nH]c(SCc2nc3ccccc3s2)n1	-18%
35	CCOc1cc(C2C3=C(CCCC3=O)NC3=C2C(=O)CCC3)ccc1OCCO	-10%
36	O=C(Nc1cccc(Cl)c1)C1=Cc2cc(Cl)ccc2OC1	u
37	CCOC(=O)c1c(C)[nH]c(C)c1C(=O)CSc1nc2ccccc2n1CC	-3%
38	COc1ccc(CCNC(=O)CSc2nc(C)nc3c2c(=O)n(C)c(=O)n3C)cc1OC	-9%
39	COc1ccccc1-c1nn2c(C(F)(F)F)nnc2s1	u
40	COc1cccc(NC(=O)N2CCN(C(=O)C(Cc3ccc(OC)c(OC)c3)NC(C)=O)CC2)c1 (configuration not stated)	-10%
41	O=C(O)c1ccc2cc[nH]c2c1	u
42	CCC(Sc1nc2ccccc2[nH]1)C(=O)Nc1cc(C)on1 (configuration not stated)	-6%
43	CCNc1nc2[nH]c(=O)c3c(c2s1)OC(N)=C(C#N)C3c1ccc(C)cc1 (configuration not stated)	-8%
44	COc1cccc(Nc2ncc3nc(CCc4ccccc4)c(=O)n(C[C@H]4CCCO4)c3n2)c1	u
45	COC(=O)CSc1nc(NC#N)nc(NC(C)C)n1	-4%
46	CCN(CC#CCC(O)(c1ccccc1)C1CCCC1)C(C)C (configuration not stated)	-3%
47	NC(=O)NC(Cc1ccccc1)C(=O)Nc1ccc(S(N)(=O)=O)cc1 (configuration not stated)	-6%
48	O=c1n(-c2ccccc2)c(=O)n(Cc2ccccn2)n1Cc1ccccn1	-10%

# Structural class, the compounds so far containing a nitro group on carbon (2)
item	SMILES	HPGD block
5	O=[N+]([O-])c1cccc(/C=C/c2nc(C=Nc3ccc4ccccc4c3)c(O)o2)c1	-11%
26	O=CNNC(=O)c1cccc([N+](=O)[O-])c1	-5%

# Next section:
item	SMILES	HPGD block
49	c1ccc2c(c1)ncn2CCn1cnc2ccccc21	-9%
50	CC1C(=O)OC2CC34C5CC(C(C)(C)C)C36C(OC(=O)C6O)OC4(C(=O)O5)C21O (configuration not stated)	7%
51	N#CC1=C(N)Oc2cc(N)ccc2C1c1ccsc1 (configuration not stated)	-2%
52	CC(C)OC(=O)c1nnc(Cc2ccc(F)cc2)o1	-22%
53	COc1ccc(OC)c(-c2cc(C(=O)N3CCN(c4ccccc4)CC3)no2)c1	u
54	CCn1c(=O)cc(SCC(=O)NCc2ccccn2)c2ccccc21	u
55	CCN(CCO)Cc1csc2c(Br)cccc12	-11%
56	CCCOc1ccc(N2C(=O)CC(N(C(=O)c3ccco3)c3ccc(OCCC)cc3)C2=O)cc1 (configuration not stated)	-1%
57	O=C1Cc2c([nH]c3ccc(Br)cc23)-c2ccccc2N1	-26%&-19%
58	Cc1nn(-c2ccccc2)c(C)c1/C=N/n1c(-c2ccc(Cl)cc2)n[nH]c1=S	u
59	N#Cc1c(N)nc(-c2ccccc2)nc1-c1ccccc1	-18%
60	Oc1ccc2ccccc2c1N=Nc1ccccn1	32µM*
61	Cc1csc(SCC(=O)O)n1	0%
62	Cc1cc(C)n(-c2ccc(C(=O)O)cc2)n1	-8%
63	Cc1cc(C)n(CC(O)COc2ccccc2C(=O)Nc2ccccc2)n1 (configuration not stated)	-3%
64	O=C1c2ccccc2C(=O)N1Cc1nc(-c2ccccc2)no1	-8%
65	CC(C)C(c1nnnn1Cc1ccc(F)cc1)N1CCN(C2CCCCC2)CC1 (configuration not stated)	-2%
66	Cc1ccc(S(=O)(=O)c2nc(-c3ccc(F)cc3)oc2SCC(N)=O)cc1	-12%
67	Cc1noc(C)c1C(=O)N1CCCC1	-18%
68	CCOC(=O)C1CCN(C(=O)C2CCN(c3nc4ccc(OC)cc4s3)CC2)CC1	-6%
69	CCOC(=O)CNC(=O)C(=O)c1c(O)[nH]c2ccccc12	-1%
70	CC(=O)NC1CC2CCCC(C1)N2C(=O)Nc1ccccc1 (configuration not stated)	-7%
71	CCc1cccc(C)c1NC(=O)C1C2CCC(O2)C1C(=O)O (configuration not stated)	-3%
72	Fc1cccc(F)c1CSc1nc2ccccc2[nH]1	-5%
73	COc1ccc(/C=N/NC(=O)c2ccc(COc3ccccc3Cl)o2)cc1	u
74	CN(C)c1oc(-c2cccs2)nc1C#N	u
75	O=C(Nc1ccccc1)c1ccc(CSc2ncccn2)cc1	u
76	Cc1ncn(-c2ccccc2O)c1C	u
77	COc1ccc(/C=C(\NC(=O)c2ccc(OC)cc2)C(=O)NC(CCSC)C(=O)O)cc1 (configuration not stated)	-14%
78	O=c1c2cccc3c2c(nn1-c1ccccc1)-c1ccccc1-3	-20%
79	CN1CCN(Cc2ccc(-c3ccc(Cl)cc3)o2)CC1	-13%
80	N#CCCNc1c(Cl)cc(Cl)cc1C(=O)O	-6%
81	O=[N+]([O-])c1cccc(/C=N/n2c(C3CCCCC3)n[nH]c2=S)c1	2.5µM*
82	CC(=O)Nc1nonc1-c1nc2ccccc2n1CCC#N	-27%
83	Cc1cc(C)cc(N(CC(=O)NCc2cccnc2)S(C)(=O)=O)c1	-6%
84	O=S(=O)(c1ccc2ccccc2c1)N1CCC(c2nc(-c3ccncc3)no2)CC1	-14%
85	O=C(N/N=C/c1coc2ccccc2c1=O)c1cc2ccccc2o1	-20%
86	CC(C)CNC(=S)N1CCC(NC(=O)C23CC4CC(CC(C4)C2)C3)CC1	-11%
87	CCn1cc(C(=O)NCc2ccc(OC)cc2OC)c(=O)c2ccc(C)nc21	0%
88	COCCNC(=O)CN1CCC(NC(=O)C(C)(C)C)CC1	1%
89	COc1ccc(-n2c(COc3ccc(C)cc3)nnc2SCC(N)=O)cc1	-13%
90	CCSc1nc2ccccc2n1C(=O)Oc1ccccc1	-9%
91	C=CCOC(=O)C1=C(C)Nc2nnnn2C1c1cccs1 (configuration not stated)	-16%
92	O=C(NCc1ccco1)c1ccc2snnc2c1	-25%
93	COC(=O)c1[nH]c2ccc(C)cc2c1NC(=O)Nc1ccc(OC)cc1	-11%
94	CCCn1c2c(c(O)c(C(=O)NC)c1=O)CCCC2	-17%
95	CCNC(=S)N/N=C(\C)c1cc2ccccc2o1	-13%
96	CCOC(=O)c1ccc(S(=O)(=O)N2CCN(CC(=O)NC(=O)NC3CCCCC3)CC2)cc1	-8%
97	CSc1ccccc1NC(=O)C1CCCO1 (configuration not stated)	-19%
98	Oc1[nH]c2ccccc2c1N=Nc1ccccc1F	-18%
99	O=C(Nc1cc(S(=O)(=O)N2CCOCC2)ccc1Cl)C(=O)c1c(-c2ccccc2)cc2ccccn12	-4%
100	CCc1ccc(OCC(=O)N/N=C/c2cc([N+](=O)[O-])ccc2N2CCOCC2)cc1	-10%
101	CCCOc1c(Cl)cc(C(=O)Nc2ccc3c(c2)OCO3)cc1OCC	-17%
102	COC(=O)c1cc2n(n1)CCN(Cc1ccc(F)cc1)C2=O	-9%
103	O=C1Nc2ccc([N+](=O)[O-])cc2C1(O)N1CCCCCC1 (configuration not stated)	-5%
104	CCOCCn1c(SCc2c(F)cccc2Cl)nc2c1c(=O)[nH]c(=O)n2C	-4%
105	Cc1ccc(-c2cc(C(F)F)n3ncc(C(=O)N4CCN5CCCC5C4)c3n2)cc1 (configuration not stated)	u
106	CCOC(=O)C1=C(C)Nc2nc(C)nn2C1c1ccc(OC)c(OC)c1 (configuration not stated)	-5%
107	Cc1ccccc1-n1nc2c(c1NC(=O)c1cccc(F)c1)CS(=O)C2 (configuration not stated)	-7%
108	C=CCNC(=O)NC(=O)COC(=O)/C(C#N)=C/c1cc(C)n(CCC(C)C)c1C	u

# (cont.)
item	SMILES	HPGD block
109	Cc1sc(NC(=O)c2ccco2)c(C(c2cccnc2)N2CCC(C)CC2)c1C (configuration not stated)	-17%
110	O=C(CSCc1ccccc1)NC1CCSC1=O (configuration not stated)	-6%
111	CCOCCn1c(N(C)Cc2ccccc2)nc2c1c(=O)[nH]c(=O)n2C	-10%
112	O=C1Nc2cc(C(=O)N3CCc4ccccc4C3)ccc2S/C1=C\c1ccccc1	16µM*
113	O=C(NCCO)c1ccc2[nH]c3c(c2c1)CCCC3	-11%
114	O=C(N/N=C/c1ccco1)C1CC1c1ccccc1 (configuration not stated)	-10%
115	Cc1ccc(NC(=O)c2ccc(CN3CCc4ccccc4C3)cc2)cc1	4%
116	Cc1c(NC(=O)C2CC(c3c(F)cccc3Cl)=NO2)c(=O)n(-c2ccccc2)n1C (configuration not stated)	-11%
117	Cc1cc(NC(=O)c2ccc(NC(=O)C(C)C)cc2)no1	-4%
118	COc1ccccc1NCCC(=O)OCC(=O)NC1CCCCC1	-6%
119	O=C(O)COc1ccc(-c2nnn(CC(=O)O)n2)cc1	-13%
120	COc1ccc(C(=O)c2ccccc2)cc1Br	u
121	CC(C)(C)c1ccc(C2(C)NC(=O)N(CC(=O)NCc3cccs3)C2=O)cc1 (configuration not stated)	-10%
122	COc1ccc(OCCNc2cc(N3CCOCC3)ccc2[N+](=O)[O-])cc1	u
123	Cc1ccc(NC(=O)c2noc3c2CCCCC3)cc1C	-2%
124	CCN(CC)c1ccc(/C=N/NC(=O)c2ccco2)cc1	-29%
125	CCOc1ccccc1NC(=O)Cn1c(C)cc(COC)c(C#N)c1=O	-17%
126	Cc1nn(Cc2ccc(C(=O)N3N=C(C(F)F)CC3(O)C(F)F)cc2)c(C)c1[N+](=O)[O-] (configuration not stated)	-5%
127	NNC(=O)c1ccc(COc2ccc3c(c2)CCC3)o1	-1%
128	C/C(=N/NS(=O)(=O)c1ccc(F)cc1)c1ccc(NC(=O)c2ccc(C)o2)cc1	-9%
129	O=C(Cn1cnc2ccccc2c1=O)NCCC(=O)Nc1ccc2c(c1)OCCO2	-27%

# High-throughput results (PubChem)

# Some of the compounds tested (hit frequency here may not be typical).
